From PubChem
gsp agonist – qHTS for Agonist of gsp, the Etiologic Mutation Responsible for Fibrous Dysplasia/McCune-Albright Syndrome: qHTS. 340,000 compounds, 0.13% hits. AID 624287, 2012. gsp mutant cells, cAMP HTRF, 30 min; control for the full effect not named in the record. Potency, µM (highest dose often 76.9 µM), for the others: top-dose activation (cAMP increase), most hits filed as activators; active = well fitted activation curve with a large enough effect; inconclusive = small, poorly fitted or top-dose-only effect, or another doubt; inactive = no such curve, though single readings can be large or run the other way; cell line not stated here;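 note: phosphodiesterase inhibitor Ro 20-1724 added with compounds to block cAMP breakdown; potency is the fitted concentration of half-maximal effect; nearly all actives have a fitted effect of over 60% in size; about a fifth of the inactives were tested at one dose only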
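Cells in DMEM/10% FBS with G418 were pretreated with compounds in DMSO plus […] (300 uM stock) for 30 min at 37C. cAMP was measured by HTRF (cAMP-d2 plus anti-cAMP antibody-K) after 30 min at room temperature.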
gsp antag – qHTS for Antagonists of gsp, the Etiologic Mutation Responsible for Fibrous Dysplasia/McCune-Albright Syndrome: qHTS. AID 624288, 2012. 340,000 compounds, 0.4% hits. gsp-mutant cells, cAMP HTRF, 30 min; control for the full effect not named in the record. Potency, µM (titrated, usually from 76.9 µM), for inactives: at the highest dose activity change, negative = inhibition, most hits filed as inhibitors; active = falling curve of any shape with a large fitted effect; inconclusive = falling curve, mostly with a smaller effect; inactive = flat or rising curve; cell line not stated here;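 note: intracellular cAMP measured with PDE inhibitor Ro 20-1724 present during compound exposure; potency is the fitted concentration of half-maximal effect; % is set by controls: 0 for no effect and ±100 for the full control effect; nearly all actives have a fitted effect of over 65% in size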
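HTRF cAMP read-out (cAMP-d2 plus anti-cAMP antibody-K in lysis buffer, 30 min RT). Before lysis, cells are exposed to compounds with […] for 30 min at 37C in DPBS containing Ca/Mg, BSA and Tween 20.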
Menin MLL FP FL – qHTS Assay for Inhibitors Targeting the Menin-MLL Interaction in MLL Related Leukemias: Competition With Fluorescein Labeled MLL-derived Peptide; Fluorescence polarization, fluorescein-MLL peptide displacement from menin; FP activity change, % at 61.4 µM; 290,000 tested, under 10 active; inconclusive = falling polarisation curve, or a change in total fluorescence; inactive = total fluorescence flat and polarisation flat or rising; no compound was filed as active; the % refers to the polarisation; negative = inhibition;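 note: % of control where 0% means no effect; inhibitors lower the polarisation; unlabelled MLL peptide was the positive control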
Sfp inh – qHTS Assay for Inhibitors of Bacillus subtilis Sfp phosphopantetheinyl transferase (PPTase) | 4'-phosphopantetheinyl transferase ffp (Bacillus subtilis), Q9F4F7 | 310,000 compounds, 3.5% hits | Biochemical Sfp PPTase activity, qHTS | AID 1490, 2009 | Potency, µM, for inactives: max response, negative = inhibition, hits mostly inhibitors; active = well fitted inhibition curve with a large enough effect; inconclusive = small, poorly fitted or top-dose-only effect, or another doubt; inactive = no such curve, though single readings can be large or run the other way;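 note: the enzyme is Sfp with the accession as filed and its product quenches rhodamine fluorescence; potency is the fitted concentration of half-maximal effect; 0% = enzyme reaction without inhibitor and -100% = no enzyme wells; top concentration of the series not given in the record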
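Buffer: 50 mM Hepes-Na pH 7.6, 10 mM MgCl2, 0.01% Nonidet P-40, 0.01% BSA. Enzyme 15 nM, pre-exposed to compound 15 min; substrates then added and fluorescence change tracked over 30 min.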
ClpP mod – qHTS Assay for Activators of ClpP. purified B. subtilis ClpP, FRET peptide cleavage, 20 min. Potency, µM (highest dose often 57.5 µM), without a hit: top-dose activity change, negative = active. 340,000 compounds, 1.9% hits. AID 651965, 2013; active = well fitted falling curve with a large enough effect; inconclusive = small, poorly fitted or top-dose-only effect; inactive = no such curve, though single readings can be large or run the other way; note: potency is the fitted concentration of half-maximal effect; the source files actives as falling curves though it sought activators and does not explain the sign; nearly all actives have a fitted effect of over 65% in size; many hits overshoot -100%
Target sequence (P80244 whole entry, looked up): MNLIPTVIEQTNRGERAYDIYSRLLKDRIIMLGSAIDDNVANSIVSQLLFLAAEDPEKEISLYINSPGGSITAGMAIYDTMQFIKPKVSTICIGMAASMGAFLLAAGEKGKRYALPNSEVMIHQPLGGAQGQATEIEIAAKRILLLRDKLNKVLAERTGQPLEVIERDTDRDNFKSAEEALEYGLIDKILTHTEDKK
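Buffer: 100 mM Tris/HCl pH8, 100 mM KCl, 0.05% low protease BSA, 2.5% glycerol, 0.01% Tween-20. ClpP 10 microg/mL final; 20 min RT; delta FRET normalized to ADEP and DMSO controls.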
D2 agonist – Beta-Arrestin HTS for Positive Allosteric Modulators of the Human D2 Dopamine Receptor: Agonists | activation, % (concentration not given with the values) | DiscoveRx PathHunter D2 beta-arrestin, luminescence, 90 min; 100% = 57 uM dopamine signal | D(2) dopamine receptor (Homo sapiens), P14416 | 360,000 compounds, 0.084% hits; in the data active = activation above about 40%; inconclusive = about 15% to 40%; inactive = below about 15%; note: the text of the record calls up to 30% inactive
Target sequence (P14416 whole entry, looked up): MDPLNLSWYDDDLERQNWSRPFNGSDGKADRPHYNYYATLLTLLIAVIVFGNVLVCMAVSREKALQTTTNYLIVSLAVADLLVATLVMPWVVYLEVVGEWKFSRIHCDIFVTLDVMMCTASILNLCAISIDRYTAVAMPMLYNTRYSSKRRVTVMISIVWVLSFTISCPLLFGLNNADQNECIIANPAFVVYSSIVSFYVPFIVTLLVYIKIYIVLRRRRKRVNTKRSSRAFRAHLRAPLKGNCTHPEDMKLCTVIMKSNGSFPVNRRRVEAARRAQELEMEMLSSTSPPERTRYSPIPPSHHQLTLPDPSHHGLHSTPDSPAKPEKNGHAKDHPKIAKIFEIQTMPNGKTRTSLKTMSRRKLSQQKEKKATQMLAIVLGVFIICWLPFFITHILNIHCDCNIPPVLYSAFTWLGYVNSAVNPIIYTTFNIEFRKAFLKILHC
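DiscoveRx PathHunter D2 beta-arrestin cells (2,100/well) attached overnight, then compound-stimulated 90 min at 37 C in HBSS/10 mM HEPES/0.1% Tween-20 buffer; beta-galactosidase complementation read by luminescence after 1 h at ambient temperature. Dopamine 57 uM final (EC100) as control.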
PINK1 modulator – A Quantitative High throughput Screen to Identify Chemical Modulators of PINK1 Expression; Potency, µM (top dose mostly 76.6 µM), for inactives: top-dose activation (PINK1 increase), hits mostly activators; AID 624263, 2012; PINK1 immunofluorescence, high-content cytometry, 24 h; 410,000 compounds, 0.2% hits; active = well fitted activation curve with a large enough effect; inconclusive = small, poorly fitted or top-dose-only effect; inactive = flat fitted curve, though single readings scatter; cell line not stated here;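 note: potency is the fitted concentration of half-maximal effect; % of control where 0% means no effect; nearly all actives have a fitted effect of over 65% in size; a mitochondrial uncoupler was the plate control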
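Readout is PINK1 immunofluorescence, quantified alongside mitochondrial, cell and nuclear markers by laser-scanning microplate cytometry. Cells from a stable line were exposed to compound titrations (5 concentrations) for 24 hours, with CCCP controls.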
Starred values were filed as active, the others as inactive; ? = inconclusive; / = no result given; [ ] = remark or other dose.

SMILES	gsp agonist	gsp antag	Menin MLL FP FL	Sfp inh	ClpP mod	D2 agonist	PINK1 modulator
Cc1cc(NCc2ccccc2)c2ccccc2n1	?	-8%	0.8	-1%	-1.1%	-5.2	3.4%
CCOC(=O)C1CCN(C(c2cccnc2)c2c(NC(=O)c3ccco3)sc(C)c2C)CC1 (centres undefined)	-29%	-15%	-1.4	?	-5.4%	-0.9	11%
O=C(O)Cn1nc2c3c(cccc3c1=O)-c1ccccc1-2	13%	7%	-15	12%	?	-4.9	1.1%
COc1cc(OC)cc(C(=O)N2CCN(C(=O)c3ccc(-c4ccccc4)cc3)CC2)c1	-11%[15.4 µM]	-13%	0.8	?	/	3.7	0.3%
Cc1ccc(C)c(S(=O)(=O)N2CCN(C(=O)Nc3ccccc3)CC2)c1	12%	-14%	/	1%	-0.7%	-2.7	0.6%
O=S(=O)(Nc1ncccn1)c1ccc(NC(=S)N2CCN(c3cccc(C(F)(F)F)c3)CC2)cc1	16%	-17%	/	/	1.4%	-4.5	-0.2%
CCOC(=O)NC(=O)COC(=O)Cc1cc(OC)c(OC)c(OC)c1	-18%	-6%	-1.5	11%	0.3%	0.7	-0.4%
C1CCN(c2nc3nonc3nc2N2CCCCC2)CC1	-29%	6%	2.5	2%	2.1%	-1.4	6.1%[38.3 µM]
Cc1ccc(OC(C)C(=O)Nc2ccccc2C(=O)NCc2cccnc2)cc1C (centres undefined)	26%	-6%	/	-4%	-6.3%	-3.4	0.2%
CN1CCN(C(=S)NC(=O)/C=C/c2cccc3ccccc23)CC1	?	-14%	2.5	1%	4.5%	-2.4	-3.7%[38.3 µM]
CCN(C(=O)COC(=O)CCC(=O)c1cccs1)c1ccccc1	8%	4%	/	/	-2.6%	-0.5	0.8%
O=C(O)c1ccc(CP(=O)(c2ccccc2)c2ccccc2)cc1	-1%	9%	0.9	17%	-1.3%	-1.1	2.6%
C[N+]1(CCOc2ccc([N+](=O)[O-])cc2)CCOCC1	9%	3%	1.8	-5%	-5.8%	1.4	-0.5%
Cc1c(C2=CCN(S(=O)(=O)c3ccc(Cl)cc3)CC2)c2ccccc2n1C	17%	10%	?	-23%	-24%	-3.2	-0.4%
COc1ccc(C(=O)NC(=S)N2CCCc3ccccc32)cc1OC	2%[15.4 µM]	5%	6.5	?	/	-3.5	0.5%
S=c1[nH]nc(-c2ccc(Br)cc2)n1-c1ccc2c(c1)OCCO2	-6%[15.4 µM]	?	0.6	40µM*	1.0%	4.2	-1.3%
Cc1onc(-c2ccccc2Cl)c1C(=O)NCc1cccnc1	-28%	7%	6.8	16%	-2.6%	-1.7	?
COCCn1c(SCC(=O)Nc2cc(C)on2)nc2ccccc2c1=O	6%	8%	/	/	-2.2%	-2.8	0.2%
CCCCS(=O)(=O)Nc1ccc(C(=O)NCC2CCCO2)cc1 (centres undefined)	-40%[inhibitor]	-1%	2.0	16%	-5.0%	-2.7	3.0%[38.3 µM]
COc1ccc(C(=O)N2CCC3(CC2)CN(CC(C)C)C3)cc1	/	/	-1.0	0%	/	/	1.8%
COCCn1c(SCC(=O)Nc2ccc(OC)cc2OC)nc2ccccc2c1=O	-66%[inhibitor]	2%	-12	22%	-0.8%	-1.0	4.8%
COc1ccccc1C1C(C(N)=O)=C(C)Nc2nc(-c3ccc(Cl)cc3)nn21 (centres undefined)	-2%	6%	3.3	18%	-18%	-7.5	2.3%
Cc1occc1-c1nnc(SCC(=O)N2CCCCC2)n1C	11%[15.4 µM]	7%	/	/	/	-5.1	0.4%
Cc1cc(S(=O)(=O)NCc2cccnc2)ccc1-n1cnnn1	-8%	1%	1.0	-1%	0.2%	0.7	/
Cc1cc(N2CCN(C(=O)c3ccco3)CC2)nc(-c2ccccc2)n1	-13%	-7%	-2.6	-8%	-2.0%	-3.8	0.5%
Cc1cc(=O)oc2c(C)c(OC(C)C(=O)NCc3ccccn3)ccc12 (centres undefined)	?	-23%	2.2	7%	4.2%	-3.4	-0.3%
O=C1Nc2c(c(=O)[nH]c(=O)n2-c2ccccc2)C1(Nc1ncccn1)C(F)(F)F (centres undefined)	9%	6%	3.4	-2%	-0.2%	-3.5	-2.5%
COc1cccc(-c2ccc(C#N)c(SCC(=O)NCCc3cccc(Cl)c3)n2)c1	?	28%	6.2	20%	?	0.5	/
COc1ccc(N(CC(O)Cn2cnc3ccccc32)S(=O)(=O)c2ccc(C)cc2)cc1 (centres undefined)	4%	-1%	0.7	0%	1.7%	-3.6	1.2%
Cc1cccc(C(=O)Nc2nnc(-c3ccc(C(C)(C)C)cc3)s2)c1	?	22%	3.2	2%	-24%	-0.7	6.7%
CCOC(=O)Cc1c(C)nc2cc(C)nn2c1C	23%	2%	-1.5	0%	-11%	-2.3	0.3%
C=CCOC(=O)C1C(=O)CC(C)(O)C(C(=O)OCC=C)C1c1ccc(OC)cc1 (centres undefined)	9%	-17%	3.6	4%	-20%	-0.5	0.5%
CCOC(=O)CCCCCN1C(=O)c2cccc3cccc(c23)C1=O	9%	-6%	-3.7	2%	4.0%	1.9	0.8%
CCCCN1C(=O)C2C(C(=O)Nc3cccc(OC)c3)C3C=CC2(O3)C1C(=O)NC1CCCCC1C (centres undefined)	1%	2%	0.7	13%	-3.1%	-0.5	4.0%
C=CCn1c(SCC(=O)Nc2c(C)n(C)n(-c3ccccc3)c2=O)nc2sc(C)c(C)c2c1=O	38%	-8%	3.0	11%	-0.4%	2.8	13%[38.3 µM]
Cc1ccc(CN2CC(C(=O)N3CCN(c4ccccc4O)CC3)CC2=O)cc1 (centres undefined)	-3%[15.4 µM]	0%	/	/	0.8%	0.1	-0.8%
Cc1ccc(/C=C/C(=O)O)cc1S(=O)(=O)N1CCCCC1	-18%	4%	0.6	13%	0.6%	1.4	1.1%
CCOCCCNCc1ccc(OC)c(OC)c1	4%	-5%	2.3	-12%	-0.2%	-1.0	1.8%
O=C(c1ccc(=O)[nH]c1)N1CCN(S(=O)(=O)c2ccc(Cl)cc2)CC1	0%[15.4 µM]	-18%	2.0	14%	/	1.7	0.9%
COC(=O)Oc1ccc(/C=N/NC(=O)CN(c2ccccc2Br)S(C)(=O)=O)cc1OC	-5%	5%	-2.8	4%	1.3%	-3.9	-1.6%
CC(OC(=O)C1CC1)C(=O)Nc1cccc(S(=O)(=O)N2CCOCC2)c1 (centres undefined)	-1%[15.4 µM]	-1%	/	/	0.0%	-3.5	1.6%
O=C(CCNS(=O)(=O)c1ccc(Br)s1)N1CCN(c2ccccc2)CC1	-3%	3%	1.9	27%	-1.2%	1.2	1.0%
OCc1ccccc1	/	/	-1.4	24%	0.5%	/	0.1%
C=CCN1CC(c2nc3ccccc3n2Cc2cccc3ccccc23)CC1=O (centres undefined)	2%	6%	1.8	-20%	-4.6%	-1.7	7.1%[38.3 µM]
Cc1cc(CN2CCCC(C(=O)Nc3cccc(-n4cccn4)c3)C2)cc(C)c1O (centres undefined)	-2%	-12%	-5.0	11%	-2.1%	-3.9	-0.3%
CCN(CC)CCNC(=O)CCCCCn1c(=O)[nH]c2cc(C(=O)OC)ccc2c1=O	-41%[inhibitor]	1%	0.5	7%	28µM*	-0.5	8.9%[38.3 µM]
O=[N+]([O-])c1ccc(-c2cc(-c3ccc(Cl)cc3)n[nH]2)cc1	-20%	-1%	1.1	-20%	1.9%	-1.0	1.6%
COc1ccc(NC(=O)CCCn2c(=O)[nH]c3ccccc3c2=O)cc1	0%	15%	2.5	22%	-5.9%	-1.6	1.8%
COCCCN=C1NN=C(c2cc(C)n(-c3ccccc3F)c2C)CS1	23%	-1%	?	?	-3.9%	-3.3	8.7%
O=C(CN1CCN(C(=O)c2ccco2)CC1)Nc1c2c(nc3c1CCC3)CCCC2	-53%[inhibitor]	-15%	7.5	?	-1.8%	-3.0	-1.1%
O=C(Nc1cccc(S(=O)(=O)NC2=NCCCCC2)c1)c1cc(-c2ccncc2)nc2ccccc12	?	-18%	0.4	2%	-1.5%	-2.8	-1.9%
CCOC(=O)c1ccc(NC(=O)COc2cc3oc(=O)c(CC(C)O)c(C)c3cc2Cl)cc1 (centres undefined)	-2%	4%	-0.1	4%	-7.1%	1.3	0.3%
CN(CCc1ccccn1)C(=O)c1nn2c(C(F)(F)F)cc(-c3ccco3)nc2c1Cl	0%	3%	0.7	-8%	-1.4%	-3.1	5.7%
CC(C)Oc1ccc(CN2CCC2(C)C(=O)Nc2cnc3ccccc3c2)cc1 (centres undefined)	/	/	/	/	-11%	8.1	?
COc1ccc(CCNC(=O)CCCn2nc(C)c([N+](=O)[O-])c2C)cc1OC	29%	9%	3.0	-3%	/	1.6	-0.4%
O=C(Nc1nccs1)c1ccc(COc2c(F)c(F)cc(F)c2F)o1	-37%[inhibitor]	-1%	/	/	-1.3%	-2.2	8.1%
Cc1ccc(C)c(OCc2nc3ccc(S(=O)(=O)Nc4c(C)n(C)n(-c5ccccc5)c4=O)cc3[nH]2)c1	-37%	-15%	-1.1	2%	/	-0.7	-1.6%
COc1ccc(C(=O)C2CCCN(Cc3cccn3-c3ccc(Cl)cn3)C2)c(OC)c1 (centres undefined)	3%[15.4 µM]	4%	4.4	-23%	/	-8.9	?
